# Screens: PubChem BioAssay, ICCB-Longwood Screening Facility, Harvard Medical School
# CapD inh = Bacillus anthracis CapD inhibitors, primary screen, biochemical, fluorescence intensity; CapD gamma-glutamyltranspeptidase (Bacillus anthracis Ames Ancestor); purified CapD enzyme, fluorescence intensity read-out; stronger effect = lower value; some hits fall short of the stated cut; z-score (no concentration beside the values); 140,000 compounds, 0.23% hits;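 active = z-score under -4 in either of two replicates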;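 note: stock transfer was 100 nL into about 40 µL; score is relative to mean and spread of the plate; one replicate is shown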
# AID504770 = growth inhibition of E. coli YBA685, primary screen, V. cholerae RctB inhibitors; E. coli YBA685 rctB-dependent plasmid, OD600 growth, 3 h; stronger effect = lower value; z-score (test concentration not listed); 130,000 compounds, 0.27% hits; AID 504770, 2011;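 active = z-score under -2 on both plates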;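 note: wells of about 30 µL received 100 nL stock; score is relative to mean and SD of the test wells; the first replicate is given; strong numbers were not always called active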
# The depositor's hits bear a star; . = not tested or not shown. Some of the compounds tested; the hit share may differ from the screen's.
SMILES,CapD inh,AID504770
COc1ccccc1CN=C(C)c1ccccc1O,-1.1,1.4
O=C1C(=O)N(c2ccccn2)C(c2cccnc2)/C1=C(/O)c1cccc(Br)c1 (stereo not given),-0.025,.
COc1ccc(NC(=O)Cn2c(=O)n(-c3ccccc3)c(=O)c3c4c(sc32)CCCC4)cc1OC,0.8,-0.45
O=C(COC(=O)C1CCN(C(=O)c2ccc(Cl)cc2)CC1)NCc1ccco1,.,0.1
CCc1ccccc1NC(=O)C1CCN(S(=O)(=O)c2c(C)noc2/C=C/c2ccco2)CC1,0.51,-1.2
COc1ccc(-c2cc(C(F)(F)F)n3nc(C(=O)N4CCN(C)CC4)c(Cl)c3n2)cc1OC,-1.9,.
O=C(CN(CC1CCCO1)S(=O)(=O)c1ccc(S(=O)(=O)N2CCOCC2)cc1)Nc1ccccc1 (stereo not given),.,-1.4
CN(C)/C=N/c1nnc(Sc2nc3cc(Cl)ccc3s2)s1,0.47,.
CC1(C)CC(NC(=O)NC(=O)c2c(F)cccc2F)CC(C)(C)N1,-0.22,1.6
Cc1nc2ccc(S(=O)(=O)NC(C(=O)N3CCn4c3nc3ccccc34)C(C)C)cc2s1 (stereo not given),0.07,-0.35
CCOC(=O)N1CCN(c2ncnc3c2c(-c2ccccc2)cn3-c2ccc(Br)cc2)CC1,-0.54,.
Cc1cc(C)c2c3c(oc2n1)C(=O)N(c1cccc(C(F)(F)F)c1)CC(=O)N3,-1.8,2.1
Cc1ccc2c(c1)N(C(=O)CCC1CCCCC1)C(C)(C)c1ssc(=S)c1-2,-0.35,.
Cc1[nH]n2c(=O)c3c(nc2c1-c1ccccc1)CCC3,6.2,1.6
Cc1[nH]n(-c2ccc(Cl)cc2)c(=O)c1C=Nc1ccc(S(=O)(=O)N2CCOCC2)cc1,-0.17,.
CCC(=O)Nc1cc(C(F)(F)F)cc(C(F)(F)F)c1,0.085,.
CCCNC(=O)Nc1nc(CC(=O)OCC)cs1,0.2,.
C=C(C)Cn1c(CNC(=O)c2cccs2)nc2ccccc21,0.2,0.85
COc1ccc(S(=O)(=O)Nc2ccc(S(=O)(=O)N3CCCC3)cc2)cc1Cl,-0.21,-0.2
CC1C2CC(C(S(=O)(=O)N3CCOCC3)C2=O)C1(C)C (stereo not given),0.54,1.1
O=C(NCC(=O)N1CCN(S(=O)(=O)c2ccc3c(c2)OCCCO3)CC1)c1ccccc1,.,-0.75
CCOc1ccc(NC(=O)CCS(=O)(=O)c2ccc3c(c2)CCCN3C(=O)CC)cc1,-0.32,0.25
O=C(CSc1ncnc2ccccc12)NCCC1=CCCCC1,.,1.9
Cc1nc(-c2ccc(C(F)(F)F)cc2)sc1C(=O)NNC(=O)OCC1=CCC2CC1C2(C)C (stereo not given),7.3,.
COc1ccc(N=Cc2ccccc2Br)cn1,20,-0.8
CC1(C)C2CCC1(C)C(OCC[N+]1(C)CCOCC1)C2 (stereo not given),0.33,0.1
CCOC(=O)Cn1c2c(sc1=O)C(c1ccc(Cl)cc1)C1C3CCC(C3)C1S2 (stereo not given),0.33,-0.6
COc1ccc(/C=C2\N=C(c3ccc(Cl)cc3)N(c3ccc(Cl)c(C)c3)C2=O)cc1OC,-0.74,.
COC(=O)C1=C(C)N(Cc2ccccc2)C(=O)NC1c1ccccc1F (stereo not given),0.13,-0.25
C=CCNC(=O)c1ccc2nc(-c3ccco3)c(-c3ccco3)nc2c1,.,1
CCC12CN3CC(CC)(CN(C1)C3c1ccc(C(C)C)cc1)C2=O (stereo not given),-0.72,1.4
N#C/C(=C(\O)c1ccco1)c1nc2ccccc2[nH]1,.,2.7
CC(=O)Oc1cc2sc(=O)oc2c2ccccc12,0.28,2.6
Cc1cc(C)c2nc(/N=C(\N)NC(=O)C(C)(C)C)nc(C)c2c1,1.1,0
O=C(c1csc(Nc2ccccc2Cl)n1)N1CCCC1,.,0.6
Cc1ccsc1C(=O)OCc1nc2sc3c(c2c(=O)[nH]1)CCCC3,.,-0.25
O=C1CC(Nc2ccc(N3CCOCC3)cc2)C(=O)N1 (stereo not given),-1.3,2
O=C1NCCCCC1NS(=O)(=O)c1ccccc1OC(F)(F)F (stereo not given),0.39,.
O=C(Nc1ccccc1)c1nc[nH]c1C(=O)Nc1ccccc1,-0.78,0.25
Cc1cc(C)nc(SC2=C(N3CCC(C)CC3)C(=O)N(Cc3ccccc3)C2=O)n1,.,0.45
CC(C)CNCC1COC2(CCCCC2)O1 (stereo not given),0.035,0.25
Cc1ccc2nc(NC(=O)Nc3ccccc3)sc2c1,.,0.25
O=C(N/C(C(=O)N1CCOCC1)=C(\Sc1ccccn1)c1ccccc1)c1ccccc1,-1,1.2
O=C(/C=C/c1ccc(OCc2cccc(Cl)c2)cc1)NC1CCCC1,0.35,.
CCCc1cnc(N2CCCN(C(=S)Nc3ccc(C)cc3)CC2)nc1,1.1,.
N#Cc1c(-c2ccc(Cl)cc2)ccnc1Sc1cccc(C(F)(F)F)c1,0.33,.
O=C(CCN1N=C(c2ccccc2)CCC1=O)NC1CCCC1,-1.2,3.5
Cc1nnsc1C(=O)NC(=O)Nc1cc(Cl)cc(Cl)c1,-1,3.4
CCOC(=O)CSc1nnc(CNc2ccc(F)cc2)o1,.,-0.3
NC(=O)c1cc2cc(Br)ccc2oc1=Nc1ccc(C(F)(F)F)cc1,-0.33,.

# Remaining list, next part.
SMILES,CapD inh,AID504770
COC(=O)c1cnc(Oc2c(Cl)cc(N)cc2Cl)cc1C(F)(F)F,0.2,-0.65
CC1=C(C(=O)OCCOc2ccccc2)C(c2ccccc2I)NC(=O)N1C (stereo not given),-0.43,.
Cc1c(C)n(Cc2ccc(F)cc2)c2ccc(C(=O)N3CCN(c4ncccn4)CC3)cc12,-1.4,0.3
CC(C)NC(=O)NC1CCN(S(=O)(=O)c2ccc(Cl)cc2)CC1,-0.97,.
COc1ccc(-c2cc(C(F)(F)F)n3nc(C(=O)NCCCN4CCOCC4)c(Cl)c3n2)cc1OC,-0.31,.
CC(=O)N(C)c1ccccc1C(=O)O,0.29,-0.4
C=CC(C)n1c(=O)c2c(nc3n2CCN3c2ccc(Cl)cc2)n(C)c1=O (stereo not given),.,0.1
CS(=O)(=O)c1ccc2ccn(OCCO)c2c1,26,.
CC(C)(C)OC(=O)N1CCN(S(=O)(=O)c2ccc(N3C(=O)CC4(CCCC4)C3=O)c(Cl)c2)CC1,0.73,0.4
c1ccc(-c2nc(-c3ccccc3)c(-c3ccccc3)o2)cc1,90,.
COc1ccc(-c2nc(SC3CCCC3)c3c(=O)n(C)c(=O)n(C)c3n2)cc1,-0.84,0.95
COc1c(Br)cc(Br)c2c1OCCO2,0.39,1.2
COC(=O)c1c(-c2ccccc2)noc1C,0.27,.
OCCN1CCN(C2CCN(C3CCCCCC3)CC2)CC1,-0.14,1.1
OC1(C#CCN2CCCCC2)CCCCC1,0.81,-1
CC(=O)NC(=O)c1ocnc1C,3.9,0.2
Cn1c(=O)c2[nH]c(NCc3ccccc3)nc2n(C)c1=O,0.075,2
N#Cc1ccc(Nc2ccccc2)c(N)c1,61,-1
FC(F)(F)Oc1ccc(Nc2n[nH]c(=S)s2)cc1,-1.5,1.1
CCCc1noc2c1C1=NNC(=O)C1C(C)(C)C2 (stereo not given),.,0
OC(c1cccc(Cl)c1)(c1cccc(Cl)c1)C1CN2CCC1CC2 (stereo not given),0.04,-0.95
Cc1nn(-c2ccccc2)c(N)c1-c1ccc(Cl)cc1,0.32,0.35
CCOc1cc(S(=O)(=O)N2CCC(N3CCOCC3)CC2)c(OCC)cc1-n1cnnn1,103,0.05
CC(C)(CN1CCN(Cc2ccccc2)CC1)NS(=O)(=O)c1ccccc1,.,-0.75
O=C1C2C3c4ccccc4C(CO)(c4ccccc43)C2C(=O)N1c1ccc(F)cc1 (stereo not given),-0.23,.
O=S(=O)(c1cccc(Cl)c1)N1CCC(O)(c2ccc(Cl)cc2)CC1,0.7,1.9
Cc1nc(-c2ccc(C(F)(F)F)cc2)sc1C(=O)NNC(=O)OCCN(C)c1ccccc1,0.97,.
O=C(Cc1ccccc1)Nc1cccc(C(=O)O)c1,-0.39,-0.65
O=C(OCc1cc(=O)n2ccsc2n1)C(O)(c1ccccc1)c1ccccc1,.,-1.1
CCCS(=O)(=O)c1cnc(C2COc3ccccc3O2)nc1N (stereo not given),-0.43,-0.85
O=C(O)CCn1cc(C=C2C(=O)NC(=O)NC2=O)c(-c2ccc(F)cc2)n1,.,0.35
COc1ccc(C2(c3ccc(O)cc3O)CC(c3ccco3)NC(=S)N2)cc1 (stereo not given),-0.48,.
Cc1cc(/N=C/c2cc(C)n(Cc3ccccc3)c2C)n(CCC#N)n1,-1.6,1.4
NC(=O)N1CCC(=O)Nc2ccccc21,0.04,-0.25
CC(=O)Nc1cc2c(C)cc(=O)oc2c2c(Nc3cccc(C)c3)coc12,-0.83,.
CN(C)C(CNC(=O)c1cc2ccccc2cc1O)c1ccccc1 (stereo not given),.,-0.75
O=C(CS(=O)(=O)c1ccc(C(F)(F)F)cn1)N/N=C/c1ccc(Br)c(Br)c1,0.64,.
O=C(NNC(=O)c1csc(CS(=O)(=O)Cc2ccco2)n1)OCCOc1ccc2ccccc2c1,-0.11,.
O=C(O/N=C\c1ccc(N2CCCCC2)c([N+](=O)[O-])c1)c1c(F)cccc1F,-2.5,.
COC(=O)C1=CN(C)C=C(C(=O)OC)C1c1cccc(F)c1,83,2.7
O=C(O)c1cc(-c2ccc(F)cc2)on1,0.23,-0.8
O=C(O)CCC(=O)N1N=C(c2ccccc2)CC1c1ccccc1F (stereo not given),-0.98,2
Cc1cc(NC(=O)Cn2cnc3c(oc4ccccc43)c2=O)no1,.,0.45
CCCn1c(=NC(=O)c2ccccc2)c(C#N)cc2c(=O)n3cccc(C)c3nc21,.,0.05
S=C1N(CN2CCOCC2)CCN1CN1CCOCC1,.,0.25
Cc1nc2ccc(Br)cc2c(=O)o1,-0.01,.
COC(F)(C(N)=O)C(F)(F)F (stereo not given),-1.1,.
COC(=O)Cc1csc(Nc2ccccc2)n1,.,-0.5
N#Cc1oc2ccccc2c1NC(=O)CSc1nnc(-c2ccccc2)n1Cc1ccco1,.,-0.7
N#Cc1ccc(S(=O)(=O)N2CCc3sccc3C2c2ccc(OC(F)(F)F)cc2)cc1 (stereo not given),-0.005,-0.4

# More compounds follow:
SMILES,CapD inh,AID504770
N#CCc1nc(C23CC4CC(CC(C4)C2)C3)cs1,.,-0.1
CC1(C)CC2(CCO1)OC(=O)CC2C(=O)NCc1ccccc1 (stereo not given),-0.075,0.6
COc1ccc(-c2nnc(SCC(C)C)o2)cc1,.,-0.35
CN(C)c1ccc(C=NCC2(O)CCOC(C)(C)C2)cc1 (stereo not given),-0.39,-0.2
O=C(O)CC(c1ccc(F)cc1)N1Cc2ccccc2C1=O (stereo not given),-0.15,-0.8
O=C(NCCNc1nccc(C(F)(F)F)n1)c1ccccc1,2.5,.
CCS(=O)(=O)N1CCN=C1SCc1ccc(C)cc1,-0.4,-0.75
CC1(C)CC(=O)C2=C(C1)Nc1ccccc1N(C(=O)Cc1ccccc1)C2c1ccc([N+](=O)[O-])s1 (stereo not given),-0.78,.
O=C(CSc1nc2sc3c(c2c(=O)[nH]1)CCCC3)NCc1cccnc1,0.29,.
Nc1nc(CNS(=O)(=O)c2ccccc2)nn1S(=O)(=O)c1ccccc1,1.8,-0.35
Cc1ccc2oc3nc(N)c(-c4ccc(Cl)cc4)cc3c(=O)c2c1,24,0.2
Cn1c(SCc2ccc(Cl)cc2)nnc1-c1ccc2ncccc2c1,1.1,.
Cc1cc(OCC(=O)Nc2ccc3c(c2)OCCO3)cc(C)c1Cl,.,-0.45
N#CC1=C(N)Oc2c(c(=O)oc3ccccc23)C1c1cc(Br)cs1 (stereo not given),-0.71,.
Cc1cc2ccccc2n1CCNC(=O)Cc1cccs1,0.01,-0.2
CCN(c1ccc(N)cc1)c1nc(C)cc(C)n1,-0.43,.
CCn1c(=O)c(C(=O)CSc2nnc3ccccn23)c(N)n(Cc2ccccc2)c1=O,.,-0.55
CCOc1ccccc1N(C)C(=O)c1cn(C)c(=O)c2ccccc12,0.35,1.2
CN(c1ccccc1C(=O)O)S(=O)(=O)c1ccc(F)cc1,0.95,0.3
CCOc1ccc(C(=O)OCCC2CCCN3CCCCC23)cc1 (stereo not given),0.45,0.4
CC(=O)Nc1cccc(NC(C)=C(C#N)C#N)c1,.,-0.85

# By substructure: the compounds so far containing a CF3 group
SMILES,CapD inh,AID504770
COc1ccc(-c2cc(C(F)(F)F)n3nc(C(=O)N4CCN(C)CC4)c(Cl)c3n2)cc1OC,-1.9,.
Cc1cc(C)c2c3c(oc2n1)C(=O)N(c1cccc(C(F)(F)F)c1)CC(=O)N3,-1.8,2.1
CCC(=O)Nc1cc(C(F)(F)F)cc(C(F)(F)F)c1,0.085,.
Cc1nc(-c2ccc(C(F)(F)F)cc2)sc1C(=O)NNC(=O)OCC1=CCC2CC1C2(C)C (stereo not given),7.3,.
O=C1NCCCCC1NS(=O)(=O)c1ccccc1OC(F)(F)F (stereo not given),0.39,.
N#Cc1c(-c2ccc(Cl)cc2)ccnc1Sc1cccc(C(F)(F)F)c1,0.33,.
NC(=O)c1cc2cc(Br)ccc2oc1=Nc1ccc(C(F)(F)F)cc1,-0.33,.
COC(=O)c1cnc(Oc2c(Cl)cc(N)cc2Cl)cc1C(F)(F)F,0.2,-0.65
COc1ccc(-c2cc(C(F)(F)F)n3nc(C(=O)NCCCN4CCOCC4)c(Cl)c3n2)cc1OC,-0.31,.
FC(F)(F)Oc1ccc(Nc2n[nH]c(=S)s2)cc1,-1.5,1.1
Cc1nc(-c2ccc(C(F)(F)F)cc2)sc1C(=O)NNC(=O)OCCN(C)c1ccccc1,0.97,.
O=C(CS(=O)(=O)c1ccc(C(F)(F)F)cn1)N/N=C/c1ccc(Br)c(Br)c1,0.64,.
COC(F)(C(N)=O)C(F)(F)F (stereo not given),-1.1,.
N#Cc1ccc(S(=O)(=O)N2CCc3sccc3C2c2ccc(OC(F)(F)F)cc2)cc1 (stereo not given),-0.005,-0.4
O=C(NCCNc1nccc(C(F)(F)F)n1)c1ccccc1,2.5,.
